HPGD inh: qHTS Assay for Inhibitors of HPGD (15-Hydroxyprostaglandin Dehydrogenase). 15-hydroxyprostaglandin dehydrogenase [NAD(+)] (Homo sapiens), P15428. purified HPGD, NADH fluorescence kinetic, PGE2 substrate. Potency, µM, for inactives: at the highest dose activity change, negative = inhibition, actives largely listed as inhibitors. hit rate 4.3% among 150,000. AID 894, 2007; active = well fitted inhibition curve with a large enough effect (not every such curve was filed as active); inconclusive = small, poorly fitted or top-dose-only effect, or another doubt; inactive = no such curve, though single readings can be large or run the other way;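 also: top concentration of the series not given in the record; plate controls included wells without enzyme; inactives centre near -10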
Target sequence (P15428 whole entry, looked up): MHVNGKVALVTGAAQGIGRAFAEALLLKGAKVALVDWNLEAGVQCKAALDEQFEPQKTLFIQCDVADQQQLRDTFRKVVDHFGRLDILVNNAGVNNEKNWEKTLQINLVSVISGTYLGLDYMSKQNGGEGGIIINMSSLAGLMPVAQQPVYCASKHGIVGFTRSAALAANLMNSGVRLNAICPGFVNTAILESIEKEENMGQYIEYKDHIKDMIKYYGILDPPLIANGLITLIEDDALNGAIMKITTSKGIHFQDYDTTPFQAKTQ
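20 nM HPGD preincubated 15 min at room temperature with compound in 50 mM Tris-HCl pH 8, 0.01% Tween 20. Started with 1 mM NAD+ and 30 uM prostaglandin E2; NADH fluorescence (360/450 nm) read 5 times over 30-s intervals, last minus first.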
* = called active by the depositor; ? = inconclusive; & = joins results of further samples. % is scaled to controls: 0 for no effect and ±100 for the full control effect; potency is read from the fitted curve at half-maximal effect. An excerpt; count on the stated rates, not on these rows.

molecule	HPGD inh
COC(=O)C(C)Sc1nnc(Cc2cc(=O)[nH]c(=O)[nH]2)n1-c1cccc(OC)c1 (stereo unspecified)	-0.3%
C=CCn1c(NC(=O)CC)c(C(=O)OCC)sc1=S	20µM*
CS(=O)(=O)N1Cc2ccccc2CC1C(=O)Nc1ccccc1C(N)=O (stereo unspecified)	-10.0%
CCOC(=O)C(Cc1ccc(NC(=O)/C(=C/c2ccc(OC(C)=O)cc2)NC(C)=O)cc1)N1C(=O)c2ccccc2C1=O (stereo unspecified)	-16.5%
CCc1cccc2c(C(=O)COC(=O)c3ccccc3)c[nH]c12	-20.6%
Cc1cccc(C)c1Nc1ncnc(N)c1[N+](=O)[O-]	-0.1%
CCN(CC)c1nc2ccccc2c(N)c1-c1ccccc1	?
COc1cc(/C=C/C(=O)N2CCCC2)cc(OC)c1OC	?
Cn1cnc(S(=O)(=O)N2CCc3ccccc32)c1	-4.9%
CCOC(=O)c1ccc(-c2cccc(C(F)(F)F)c2)nc1C	-19.6%
CC(C)C[C@@H](CC(=O)N[C@@H](CCC(=O)O)CC(=O)O)NC(=O)[C@@H]1CCCC[C@H]1NC(=O)C[C@H](CCCN)NC(=O)C[C@H](Cc1ccccc1)NC(=O)[C@@H]1CNCC[C@H]1N	-10.8%
COc1ccc(C(=O)NC2=C(C#N)CCC2)cc1OC	-5.4%
O=C(c1ccco1)N(CC1CCCO1)c1nc(-c2ccccc2)cs1 (stereo unspecified)	-13.8%
CC(=Nc1cccc(O)c1)c1sc2ccccc2c1O	-9.7%
Cc1cc(C)cc(Nc2ncc3c(n2)CCCC3=O)c1	-9.9%
CSc1nsc(SCC(=O)Nc2nc3ccccc3s2)n1	-6.8%
Cc1nc2sc3c(c2c(=O)o1)CCCC3	-5.7%
O=C(COC(=O)c1ccc2c(=O)n3c(nc2c1)CCC3)Nc1ccccc1F	?
COc1cc(NS(=O)(=O)c2ccc(N)cc2)nc(OC)n1	-11.2%&-15.6%&-9.2%
O=C1C2CCCN2C(c2cccc(F)c2)N1c1cccc(Cl)c1 (stereo unspecified)	-4.5%
NS(=O)(=O)c1cc(C(=O)O)cc(N2CCCC2)c1Oc1ccccc1	?
Cc1ccc(SCCNS(C)(=O)=O)cc1	-16.8%
CC(C)CNC(C(=O)Nc1ccc([N+](=O)[O-])cc1Br)c1ccccc1 (stereo unspecified)	-22.7%
O=C1/C(=C\Nc2ccc(Cl)cc2)CCN1c1ncccn1	-7.0%
CCOC(=O)C1=C(C)N(Cc2ccc(C(=O)O)cc2)C(=O)NC1c1ccc([N+](=O)[O-])cc1 (stereo unspecified)	-1.0%
CCn1cc(C(=O)NCc2ccccn2)c(=O)c2cc(F)c(N3CCN(C)CC3)cc21	-19.0%
CC(CN1CCN(C)CC1)OC(=O)c1ccc(Cl)cc1Cl (stereo unspecified)	-17.3%
COc1ccc(-c2nc(S(=O)(=O)c3ccccc3)c(N3CCOCC3)o2)cc1	-10.0%
Cc1ccc(SCC(=O)c2sc(-c3ccccc3)nc2C)cc1	-16.6%
Cc1ccc(NC(=O)CCn2nc(C)cc2C)cc1	-5.7%

Part of the list above in order of SMILES length, ascending:
molecule	HPGD inh
Cc1ccc(SCCNS(C)(=O)=O)cc1	-16.8%
CC(CN1CCN(C)CC1)OC(=O)c1ccc(Cl)cc1Cl (stereo unspecified)	-17.3%
CC(C)CNC(C(=O)Nc1ccc([N+](=O)[O-])cc1Br)c1ccccc1 (stereo unspecified)	-22.7%

Going on with the list.
molecule	HPGD inh
CC(=O)C1=NN(c2ccccc2)C2(S1)S/C(=C\c1ccccc1)C(=O)N2c1ccccc1 (stereo unspecified)	-9.9%
CNc1sc(C(=O)c2cccs2)c(N)c1-c1nc2ccccc2s1	15.8µM*
Cc1ccc(C2NC(=O)Cc3ccccc32)cc1 (stereo unspecified)	-16.1%
CCCN1C2=C(C(=O)CC(C)(C)C2)C(c2ccc(F)cc2)C2=C1c1ccccc1C2=O (stereo unspecified)	35.5µM*
Fc1ccccc1-c1nnc2c3ccccc3nc(N3CCOCC3)n12	-12.5%
Nc1nc(/C=C/c2ccc(F)cc2)nc(-c2ccccc2O)n1	0.6%
O=c1c(O)c(-c2ccc(O)c(O)c2)oc2c(OC[C@@H]3O[C@@H](O)[C@@H](O)[C@H](O)[C@H]3O)c(O)cc(O)c12	?
CN(C(=O)NC(=O)C1=C(N2CCOCC2)/C(=C/c2ccccc2)CC1)S(C)(=O)=O	?
CCOC(=O)CSC1=C(C#N)C(c2ccc(Cl)cc2)C(C(=O)OC)C(=O)N1 (stereo unspecified)	-26.4%
COc1ccccc1NC(=O)COc1ccc(CO)cc1Cl	-12.9%
Cc1ccc(S(=O)(=O)Cc2ccc(C(=O)NCCCN3CCCC3=O)o2)cc1	-2.4%
CCC(CC)C(=O)Nc1nc(-c2ccc3c(c2)CCN3C(=O)C2CC2)c(C)s1	-18.4%
CC(C)NCC(O)COCCOc1ccc(C(C)(C)C)cc1 (stereo unspecified)	0.9%
COC(=O)c1cc2nc(-c3ccc(OC)cc3)cc(C(F)(F)F)n2n1	?
Cc1ccc(S(=O)(=O)Nc2ccc3c(c2)nc(CN2CCCC2)n3C)cc1	-0.6%
CSc1nnnc2ccccc12	-6.8%
O=C(C1CCCCC1)N1CCC(c2nc3ccccc3[nH]2)CC1	-9.7%
COc1ccc(-c2cnc(OC(C)(C)C)nc2OC(C)(C)C)cc1OC	-16.4%
CC(C)c1ccc(NS(=O)(=O)c2cn(C)c(=O)n(C)c2=O)cc1	-5.7%
O=C(NCCO)C(F)(F)C(F)(F)C(F)(F)OC(F)(C(=O)NCCO)C(F)(F)F (stereo unspecified)	-12.9%
Cc1nn(C)cc1CNC(=O)C1C2CCC(O2)C1C(=O)O (stereo unspecified)	-13.1%
O=C(NCc1ccccc1)N1CCn2c(nc3ccccc32)C1	-27.9%
CCCC(=O)Nc1cc(=O)n(C)c(=O)n1C	-12.7%
Cc1cc(/C=C(\C#N)C(=O)NC2CC2)c(C)[nH]1	-18.2%
NCCC[C@@H](CC(=O)N[C@@H]1CCNC[C@H]1C(=O)N[C@H](CC(=O)N[C@@H](CCC(=O)O)CC(=O)O)Cc1ccccc1)NC(=O)C[C@H](Cc1ccccc1)NC(=O)[C@@H]1CCCC[C@H]1N	-4.2%
COc1cc(C2CC(=O)c3cnc(NC(C)=O)nc3C2)cc(OC)c1OC (stereo unspecified)	-7.4%
COc1cccc(N=c2oc3ccccc3cc2-c2nc3ccccc3[nH]2)c1	-7.4%
C=CCc1cc(/C=C2/NC(=O)N(CC)C2=O)cc(OCC)c1OCc1ccc(C(=O)O)cc1	-13.0%
Cc1ccc(NCN2C(=O)C(=O)c3ccccc32)nc1	-13.3%
CCCNC(=O)Cn1cnc2sc(C(=O)Nc3cc(OC)c(OC)c(OC)c3)c(C)c2c1=O	-4.2%
O=C(CN1c2cccc3cccc(c23)S1(=O)=O)N1CCOCC1	?
CCSc1nc2c([nH]c3ccccc32)c(=O)n1C	?
COc1ccc(C2C(C(=O)N3CCOCC3)CCC(=O)N2c2ccc(OC)cc2)cc1 (stereo unspecified)	-11.1%
CCOC(=O)N1CCN(C(=O)c2ccc3nc(C)sc3c2)CC1	-1.0%
CC(C)CN(CC(C)C)S(=O)(=O)c1cc([N+](=O)[O-])ccc1N1CCCCCC1	-1.3%
O=C(COC(=O)c1ccc(S(=O)(=O)NCc2ccco2)cc1)Nc1ncc(Cl)cc1Cl	-13.9%
Cc1ccc(-n2c(C)nc3oc4ccccc4c(=O)c3c2=O)cc1	?
O=C(c1cccs1)N1CCn2c1nc1ccccc12	-11.6%
CCN(CC)S(=O)(=O)c1cc(NC(=O)COC(=O)CCC(=O)c2ccc(F)cc2)ccc1C	-18.7%
COc1cc(OC)c(-c2nc3cnccc3n2C)cc1OC	-14.6%
COc1ccc(CN2C(=O)[C@@H]3C(c4ccc(F)cc4)=NO[C@@H]3C2=O)cc1	-9.7%
COC(=O)c1ccccc1NC(=S)N(Cc1ccc2c(c1)OCO2)Cc1cc2cc(C)ccc2[nH]c1=O	-18.6%
NC(N)=NC(=O)c1nc(Cl)c(N2CCCCCC2)nc1N	-16.3%&-9.7%
CN1CCN(C(=O)C2CC(c3ccc(F)cc3)=NO2)CC1 (stereo unspecified)	-14.8%
Cc1cc(-c2nn3c(-c4ccccc4)nnc3s2)c2ccccc2n1	14.1µM*
COc1ccc(-c2nc(C#N)c(NCCCN3CCOCC3)o2)cc1	?
COCCn1c(-c2ccc(Cl)cc2)cnc1SCC(=O)NCc1cccs1	-6.9%
COc1cc2oc(=O)cc(-c3ccc(-c4ccc(C(F)(F)F)cc4)cc3)c2c(OC)c1OC	-8.9%
CC(C)=C1C2CCC1C(C(=O)NCc1ccccc1)C2C(=O)O (stereo unspecified)	-2.8%
CCOC(=O)c1nn(-c2ccc(C)c(C)c2)cc1O	-16.0%
CCC(=O)NC(c1ccc(C)cc1)c1cc([N+](=O)[O-])c2cccnc2c1O (stereo unspecified)	-4.8%
CC(C)(C)C1=C(C#N)C(c2ccncc2)C(C#N)=C(N)O1 (stereo unspecified)	-10.3%
COc1cccc(-c2nn(C)c3sc(C(=O)N4CCN(c5ccccn5)CC4)cc23)c1	-15.0%
Cc1ccsc1CNn1cnnc1SCc1ccc(Cl)cc1	-5.7%
CCc1ccc(Nc2nnc(SCC(=O)Nc3cccc(S(=O)(=O)NC4=NCCCCC4)c3)s2)cc1	?
CCOc1ccc(Nc2nc(Cc3nnc(SCC(=O)NCC4CCCO4)n3C)cs2)cc1 (stereo unspecified)	-5.5%
CCOC(=O)C1=C(N)OC(CCl)=C(C#N)C1c1ccsc1 (stereo unspecified)	-6.4%
Cc1ccc(-n2c(SCC(=O)Nc3cc(S(=O)(=O)N4CCOCC4)ccc3Cl)nc3ccccc3c2=O)cc1	-4.6%
c1ccc(-c2nc(-n3ccnc3)nc(-n3ccnc3)n2)cc1	-13.9%
COc1ccc(OC)c(NC(=O)CNC(=O)Cn2cnc3ccccc3c2=O)c1	0.8%

(continued)
molecule	HPGD inh
Cc1cc(Cl)ccc1Oc1nccc(N(C)C)c1C#N	-18.6%
CCCC(=O)Nc1nc2ccc3nc(C)sc3c2s1	-3.8%
CCC(CC)NC(=O)c1ccccc1Oc1ccccc1	-4.5%
COC(=O)CCCC1=CC2=CC(=O)C(C)(OC(=O)CCc3ccccc3)C(=O)C2=CO1 (stereo unspecified)	-26.6%&-1.9%
O=C(N/N=C/c1ccc(-c2cccc(C(F)(F)F)c2)o1)c1ccccc1Br	-26.2%
Cc1cnn(-c2cc(N/N=C/c3cccc(F)c3)ncn2)c1	-4.2%
CCOC(=O)c1c[nH]c(=O)c(Br)c1O	-6.6%
COc1ccc(N2C(=O)CC(Sc3ncccc3C(=O)O)C2=O)cc1 (stereo unspecified)	-4.1%
Cc1c(NC(=O)CSc2nnnn2-c2ccc(O)cc2)c(=O)n(-c2ccccc2)n1C	-5.0%
O=C(NCCc1c[nH]c2ccccc12)/C(=C\c1cccs1)NC(=O)c1ccccc1	-5.2%
C=CCNC(=O)CCCC(=O)NCC=C	-6.3%
COc1ccc(/C(O)=C2/C(=O)C(=O)N(CC3CCCO3)C2c2ccc(OC)c(OC)c2)cc1 (stereo unspecified)	-4.3%
CCOc1cccc(SCc2noc(C(=O)NCCOC)c2C(=O)O)c1	-42.1%
CCC(C)n1c(SCC(=O)NCc2ccco2)nnc1-c1cccc(S(=O)(=O)N2CCOCC2)c1 (stereo unspecified)	-2.4%
C1=CC2c3ccccc3NC(c3ccncc3)C2C1 (stereo unspecified)	22.4µM*
CC[C@H](C)[C@H](NC(=O)[C@H](Cc1ccc(O)cc1)NC(=O)[C@@H](N)C(C)C)C(=O)N[C@@H](Cc1cnc[nH]1)C(=O)N1CCC[C@H]1C(=O)N[C@@H](Cc1ccccc1)C(=O)O	-8.1%
CCOc1ccc(NC(=O)CN2CCC(NC(=O)C3CCCCC3)CC2)cc1	-9.5%
CCC(=O)N1CCN(c2cc(N3CCN(C)CC3)c(F)cc2[N+](=O)[O-])CC1	-3.8%
Cc1ccc(OC(=O)CCC(=O)Nc2ccc(S(=O)(=O)Nc3cc(C)on3)cc2)cc1	-1.7%
CCN(CC)CCCC(C)n1c(-c2ccccc2)nc2c(N3CCOCC3)nc(C)nc21 (stereo unspecified)	-18.8%
O=C(CN1C(=O)CCC1=O)Nc1ccc2c3c(cccc13)CC2	-8.8%
C/C(=N\NC(=O)c1c(Cl)cnn1C)c1cccc(NC(=O)COc2ccccc2)c1	?
O=C(O)[C@@H]1Cc2c([nH]c3ccccc23)[C@@H](CCCCO)N1	-11.1%
COC(=O)N1CCC[C@@]2(CCN(c3ncccn3)C2)C1	-19.1%
O=C1CSC(=S)N1Cc1cccnc1	-16.6%
COc1ccnc(Oc2ccc(F)cc2)c1C(=O)N/C=N/OCc1c(Cl)cccc1Cl	-9.7%
CCCCn1c(NC(=O)c2ccccc2)nc2ccccc21	-12.7%
C=CCOC(=O)N[C@H](c1cccc(C(F)(F)F)c1)C(C(C)=O)C(C)=O	-18.5%
CC1CCCN(S(=O)(=O)c2ccc3c(c2)CCN3C(=O)C2CCC2)C1 (stereo unspecified)	-9.2%
CCOC(=O)c1ccccc1N/C=C1\CCCCC1=O	?
